Screening data as filed in PubChem.
Rce1 inh: yeast Rce1p protease inhibitors, primary screen, biochemical, fluorescence, cell-free homogeneous | calls only | yeast membranes, quenched prenylated peptide cleavage fluorescence | CAAX prenyl protease 2 (Saccharomyces cerevisiae (strain ATCC 204508 / S288c)), Q03530 | 290,000 tested, 0.27% active;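 active = fall in fluorescence gain of 50% or more versus controls, with final raw signal at or below 3038400; inconclusive = same 50% fall but final raw signal above 3038400; inactive = fall in fluorescence gain under 50%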;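 note: plate controls were neutral control wells for no effect and wells lacking membranes for full effect; tested at 10 µM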
MT1-MMP act inh: blockers of MT1-MMP proenzyme processing, primary screen, HT1080 RFP-PRO-GFP cells, GFP/RFP fluorescence; Matrix metalloproteinase-14 (Homo sapiens), P50281; GFP/RFP ratio fluorescence, overnight; percent of plate control window, DMSO zero; GFP/RFP ratio change, % at 20 µM; 360,000 tested, 0.061% active;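 active = GFP/RFP ratio change of at least 30% with cell ATP level not reduced by more than half and red fluorescence within 50% of control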; note: strong numbers were not always called active
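Assay system: HT1080 cells carrying an RFP-PRO-GFP reporter | Dosing: Single dose of 20 µM compound, 1% DMSO final | Incubation: Cells overnight before dosing, compound overnight, 37 °C, 5% CO2 | Evaluation: GFP/RFP fluorescence ratio | Control set: DMSO and RFP-L50D-GFP cell wells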
Yeast UUG start: modulators of yeast start codon fidelity, primary screen, whole organism, S. cerevisiae, single point, plate reader | activity score, % at 18.7 µM | AID 602363, 2012 | S. cerevisiae UUG-firefly luciferase reporter, luminescence/redox ratio | 350,000 tested, 0.13% active;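 active = replicate mean at a twofold rise or more, about +100% in these data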;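 note: firefly luciferase made from a UUG start codon reports start codon fidelity; reporter light over untreated wells divided by growth signal over untreated wells; some hits fall short of that in this replicate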
PABP polyA inh: PABP poly(A) RNA binding inhibitors, primary screen, biochemical, fluorescence polarization, uHTS | Polyadenylate-binding protein 1 (Homo sapiens), P11940 | inhibition, % at 35 µM | 290,000 tested, 1% active;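 active = 50% or more with normal probe brightness, or confirmed in later tests; inconclusive = above 50% with abnormal brightness, or retests that disagree; inactive = below 50% or failed in later tests; about a fifth of its hits are not listed in these tables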;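 note: calls also rest on retests at 20 µM and on dose response follow-up; controls were probe without protein and protein plus probe with vehicle; some compounds called inactive have numbers as strong as hits; many hits fall short of the cut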
Target sequence (P11940 whole entry, looked up): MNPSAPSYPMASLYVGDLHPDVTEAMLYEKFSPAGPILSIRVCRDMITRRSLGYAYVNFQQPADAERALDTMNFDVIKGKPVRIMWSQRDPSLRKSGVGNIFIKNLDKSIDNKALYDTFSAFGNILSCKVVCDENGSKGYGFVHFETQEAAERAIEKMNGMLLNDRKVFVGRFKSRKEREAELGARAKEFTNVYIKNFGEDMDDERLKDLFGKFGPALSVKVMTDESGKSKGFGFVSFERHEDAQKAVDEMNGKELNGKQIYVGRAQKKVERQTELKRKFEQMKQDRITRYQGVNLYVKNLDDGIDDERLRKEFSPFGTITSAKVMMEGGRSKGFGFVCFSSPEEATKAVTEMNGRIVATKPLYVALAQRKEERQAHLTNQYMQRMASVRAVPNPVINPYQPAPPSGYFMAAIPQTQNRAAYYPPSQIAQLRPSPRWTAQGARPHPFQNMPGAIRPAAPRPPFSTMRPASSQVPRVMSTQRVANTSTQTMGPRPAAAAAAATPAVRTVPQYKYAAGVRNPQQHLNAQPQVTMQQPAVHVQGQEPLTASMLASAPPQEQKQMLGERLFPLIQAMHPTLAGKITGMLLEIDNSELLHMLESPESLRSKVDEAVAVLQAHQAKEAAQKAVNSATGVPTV
HIV Env fusion: inhibitors of HIV-1 Env-driven cell-cell fusion, primary screen, HeLa-JRFL effector, CEM21 target cells, luciferase; inhibition, % at 12.3 µM; 360,000 tested, 1.1% active; AID 651610, 2012;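 active = mean replicate inhibition score of at least 50 and every replicate individually at or above 50; inconclusive = only one of the two criteria met; inactive = mean below 50 and not all replicates reaching 50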;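 note: 0% = plate neutral controls and 100% = maraviroc near 300 nM; one replicate is shown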
CSC inhib: cancer stem cell viability inhibitors, primary screen, luminescence; cancer stem cell-like cells viability; inhibition, % at 7.5 µM; 300,000 tested, 1.1% active;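 active = mean at 75% or more and at least half the replicates too; inconclusive = mean and replicates disagree; tested in HMLE shEcad cells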;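 note: 0% = median of negative and 100% = median of positive control wells; the first replicate is given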
eIF4H inh: human eIF4H binding inhibitors, primary screen, translation initiation inhibitor project, biochemical, uHTS, fluorescence polarization | Eukaryotic translation initiation factor 4H (Homo sapiens), Q15056 | inhibition, % at 35 µM | 290,000 tested, 0.94% active | AID 2012, 2009 | eIF4H fluorescence polarization binding assay;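 active = 50% or more with normal probe brightness, or confirmed in later tests; inconclusive = above 50% with abnormal brightness, or retests that disagree; inactive = below 50% or failed in later tests; about a fifth of its hits are not listed in these tables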;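 note: calls also rest on retests at 20 µM and on dose response follow-up; 0% = protein and probe with vehicle and 100% = probe without protein; strong numbers were not always called active; many hits fall short of the cut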
MT1-MMP act inh RFP: second read-out of MT1-MMP act inh, no call of its own (marks repeat the call); RFP signal change, %; measured here: RFP expression control read;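 0 = vehicle wells; hits needed this value within 50% of zero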
The depositor's hits bear a star; i = inactive; ? = inconclusive; · = no result given.

SMILES	Rce1 inh	MT1-MMP act inh	MT1-MMP act inh RFP	Yeast UUG start	PABP polyA inh	HIV Env fusion	CSC inhib	eIF4H inh
O=C(/C(C=Nc1ccc(F)cc1)=C(/O)c1ccco1)C(F)(F)F	i	1	4	·	-14	-87	9	0
Cc1ccc(S(=O)(=O)N(C)C)cc1NS(=O)(=O)c1ccc(Cl)s1	i	-1	-3	1	-3	·	11	-1
CCN1CCN(c2ncnc3c2nnn3Cc2ccccc2)CC1	i	-2	1	-8	-5	-4	·	-15
CCSc1ncc(/C=N/Nc2ccc([N+](=O)[O-])cc2)n1C	i	1	7	·	2	·	10	2
CCOc1ccc(CCNC(=O)C2CC(=O)N(c3ccccc3OCC)C2)cc1OCC (stereo unspecified)	i	-2	0	19	·	2	-9	·
CC(=O)n1c(=O)oc2ccccc21	i	2	2	-8	·	-19	-1	·
CCc1cccc(N=c2c([N+](=O)[O-])nn(-c3ccc4c(c3)OCCO4)n2O)c1	i	-18	-12	·	0	38	14	1
Cc1ccc(C2=NNC(=O)C(P(=O)(c3ccccc3)c3ccccc3)C2)cc1 (stereo unspecified)	i	-3	-5	·	6	-1	-6	-4
CN(c1ccc(OCC(=O)Nc2nc(-c3ccccc3)cs2)cc1)S(=O)(=O)c1ccc(F)cc1	i	-1	-17	·	2	32	20	-5
O=C(CN1CCCc2ccccc21)Nc1ccccc1[N+](=O)[O-]	i	-2	4	·	7	1	9	8
Clc1ccccc1-c1nn2c(COc3ccccc3)nnc2s1	i	8	5	-21	-1	13	-1	-7
CCCC/C=C/[C@H](c1ccccc1)[C@H](CO)Cc1cccnc1	i	-3	-1	-8	·	1	-8	·
CC(=O)N1N=C(c2cccc([N+](=O)[O-])c2)OC1(C)c1cccs1 (stereo unspecified)	i	-4	-4	11	-3	10	-1	-6
COc1ccc(N2CCN(C(c3cccs3)C(C)NC(=O)c3ccc4c(c3)OCO4)CC2)cc1 (stereo unspecified)	i	-3	-5	·	27	8	-11	-1
CC(C)(C)CC(C)(C)NC(=O)/C=C/C(=O)O	i	-2	3	-26	14	-12	-6	-3
O=C(NC(=S)Nc1ccccn1)c1ccco1	i	3	6	·	-13	-26	12	-6
CC(=O)Nc1nc2cc([N+](=O)[O-])ccc2s1	·	6	0	-13	·	-32	7	·
C/C(=N\Nc1nc(C)cc(C)n1)c1ccc(N2CCOCC2)cc1	i	-12	-1	·	2	-5	5	20
COc1ccc(OC)c(NC2=NC3(CCCCC3)N=C(N)N2)c1	i	3	3	-58	4	11	-8	0
COc1cc(OC)c(OC)cc1CN1CCN(S(=O)(=O)c2ccc(F)cc2)CC1	i	3	1	-14	6	-151	-10	-7
O=C(NC1CCCCC1)C(c1ccc2ncccc2c1)N(Cc1ccccc1)C(=O)c1ccc2c(c1)OCCO2 (stereo unspecified)	i	-8	-11	-3	-13	·	·	-7
CC(C)CNC(=O)Cn1c(=O)c2c(ncn2CC(C)C)n(Cc2ccccc2)c1=O	i	4	4	-8	38	-2	3	-12
O=C(CSc1nc2ccccc2c(=O)n1-c1ccccc1)NCc1ccc2c(c1)OCO2	i	4	0	-4	5	80*	7	2
N#Cc1c(-c2ccc(Cl)cc2)nc2n(c1=O)CCCS2	i	8	2	-3	3	·	0	-6
COC(=O)c1ccc(NC(=O)CN(Cc2ccc(Cl)cc2)S(C)(=O)=O)cc1	i	1	-3	-12	-12	-23	7	-6
COc1cc(CSc2nc(-c3ccccc3)cc(=O)[nH]2)cc(OC)c1	i	-4	-2	-15	-6	·	-2	8
CC(C)[C@H](NC(=O)OCc1ccccc1)C(=O)NC(C=O)Cc1ccccc1 (stereo partly specified)	·	4	0	3	·	·	3	·
CC(C)(C)NC(=O)CN(C(=O)CN1C(=O)C(=O)c2ccccc21)C(C)(C)C	i	-1	3	·	2	-4	-12	-2
COc1ccc(C(=S)N2CCN(C)CC2)cc1	i	0	2	-24	5	-5	0	0
O=C(COC(=O)C1CCN(c2ccc(C(F)(F)F)cn2)CC1)c1ccccc1	i	1	3	-11	·	-9	-4	·
C=CCC[C@H](Cc1ccc(F)cc1)C(=O)OC[C@@H](NC(=O)[C@@H](CC=C)CC(=O)N[C@H](CO)Cc1ccccc1)C(C)(C)C	·	-2	-7	0	·	37	·	·
O=C(O)CC(CC(=O)Nc1ccc2ccccc2n1)c1ccccc1 (stereo unspecified)	i	0	3	·	-7	-3	-1	9
O=C(COC(=O)c1ccc(Cl)c(S(=O)(=O)N2CCCC2)c1)NCc1ccccc1	·	1	-1	-4	·	5	-16	·
Cc1ccc(-c2onc3ccc(Cl)cc23)cc1	i	-12	-3	-3	18	-1	2	-3
CCOC(=O)c1c(NC(=O)COc2cccc3c2CCN(Cc2ccc(F)cc2)C3=O)sc2c1CCC2	i	·	·	·	0	·	9	0
COC(=O)Cn1cc(C(=O)C(F)(F)F)c2ccccc21	i	-1	4	·	3	4	1	-6
CC(C)C[C@H]1CNC(=S)N1C[C@H]1CCCN1C[C@H](Cc1ccc(O)cc1)N1C[C@H](Cc2ccccc2)N(CC2CCCCCC2)C1=S	·	-5	-4	-18	·	94*	·	·
COc1ccc(CN(C)C(=O)c2cc(-c3ccc(OC)c(OC)c3)nc3ccccc23)c(OC)c1	i	0	-2	-2	9	10	20	3
O=C(C1=C[C@@H](c2coc3ccccc3c2=O)C[C@@H](OCCCCO)O1)N1CCN(Cc2ccccc2)CC1	i	0	-1	1	11	26	-14	10
CCOC(=O)Nc1cc(N)ncn1	·	0	3	-11	·	-33	·	·
CCN(CC)CCCN=Cc1c(O)n(Cc2ccccc2)c(=O)c2ccccc12	i	6	-3	-1	-8	·	7	8
Cc1ccccc1C1c2[nH]c3ccccc3c2CCN1CCCn1cccn1 (stereo unspecified)	i	-1	2	-13	6	-7	2	7
Cc1noc(C(=O)Nc2c(C)n(C)n(-c3ccccc3)c2=O)c1Cl	i	4	3	-22	-4	6	4	5
CC(C)C[C@H](NC(=O)[C@H](Cc1ccccc1)n1c(=O)[nH]c2ccccc2c1=O)C(=O)N1CCC(C(=O)O)CC1	i	5	4	-11	-2	·	3	2
Cc1ccnc(NS(=O)(=O)c2ccc(NS(=O)(=O)c3ccc(Br)cc3)cc2)n1	i	-3	1	-9	-5	-6	-16	-5
COCC(=O)N1C[C@H]2CON(C)[C@H]2C[C@H]1c1cccc(-c2ccccc2OC)c1	·	5	2	-5	·	-9	·	·
COC(=O)CC[C@@H](C(=O)O)N1C(=O)c2ccccc2C1=O	i	4	1	-29	8	-75	6	-1
CC(=O)Nc1ccc(NC(=O)COC(=O)Cc2cccs2)cc1	i	0	1	-19	4	9	7	8
COc1ccc(S(=O)(=O)N2CCOC23CCN(S(=O)(=O)c2cccs2)CC3)cc1	i	2	-1	-13	·	-9	·	·
Cc1nnc(N(C(=O)c2cnccn2)c2ccccc2)s1	·	2	7	-25	-5	-73	·	-1
Brc1ccc2c(c1)CN1CCCC1=N2	i	-28	-10	-15	-14	31	27	-16
O=C(c1ccc(Br)cc1)N1CCC(C(=O)N2CCN(Cc3ccccc3)CC2)CC1	i	2	-2	0	-5	0	-2	-6
NC(=O)c1c(NC(=O)Cn2cc([N+](=O)[O-])cn2)sc2c1CCCC2	i	-1	-3	·	-1	2	-7	5
O=C(NCc1ccccn1)c1ccc2ccccc2n1	i	-5	0	0	-20	-97	-10	-6
Cc1oc(-c2cccs2)nc1CN1CCN(CC(C)C)C(CCO)C1 (stereo unspecified)	i	2	8	·	1	-3	32	6
O=S1(=O)c2cccc3cccc(c23)N1Cc1nnc(-c2ccccc2Br)o1	i	-3	-16	-1	5	31	15	3
CN(CC(=O)Nc1cccc(F)c1)CC(=O)Nc1ccccc1Oc1ccccc1	i	4	-4	7	0	3	-8	-6
CCOc1ccc(NC(=O)CN(C)C(=O)C2(c3ccccc3)CC2)cc1OCC	i	0	6	·	·	16	-10	·
COc1ccc(C2(C)NC(=O)N(CC(=O)Nc3ccc(Br)c(C)c3)C2=O)cc1OC (stereo unspecified)	i	6	-1	-8	-10	-2	-1	2
CCCCCC/C(=N\NS(C)(=O)=O)c1ccccc1	i	-2	-1	-14	-11	23	-13	-8

Other records
SMILES	Rce1 inh	MT1-MMP act inh	MT1-MMP act inh RFP	Yeast UUG start	PABP polyA inh	HIV Env fusion	CSC inhib	eIF4H inh
COc1ccc(S(=O)(=O)Nc2nc3ccccc3nc2NCC2CCCO2)cc1 (stereo unspecified)	i	-2	2	·	9	9	-2	-4
COC(=O)c1ccccc1NC(=S)NC(=O)C1CC1	i	-1	0	-31	-5	·	-10	2
COc1ccc(C(=O)NCc2nnc(SCC(=O)Nc3cc(C)cc(C)c3)o2)cc1OC	i	-3	2	-24	-7	5	-7	-3
O=C(CN1C(=O)C2CCCCC2C1=O)Nc1cccc(C(F)(F)F)c1 (stereo unspecified)	·	2	-4	2	·	14	-7	·
O=C(CN1CCOCC1)Nc1ccc(Br)cc1	i	4	5	2	0	-41	-8	6
CCn1c(Cc2ccc(OC)cc2)nc2ccccc21	·	3	1	-20	-5	-2	-3	-11
CCOc1ccc(/C=C2/Sc3ccc(C(=O)N4CCN(C(=O)c5ccco5)CC4)cc3N(C)C2=O)cc1OC	i	·	·	·	-7	·	25	-2
CC(C)C1Cc2c(C#N)c(N)sc(=S)c2CO1 (stereo unspecified)	i	-19	6	-5	?	·	2	?
O=C(CSc1nc2ccc([N+](=O)[O-])cc2s1)NCC1CCCO1 (stereo unspecified)	i	-2	-1	-11	4	-21	·	1
O=C(Cc1ccccc1)Nc1cccc(N2C(=O)C=CC2=O)c1	i	2	10	·	-6	12	57	-2
COC(=O)Cn1ccc2cc(S(=O)(=O)N3CCCCC3)ccc21	i	3	5	18	5	-2	-2	-5
Cc1cc(=O)oc2cc(Oc3ccc([N+](=O)[O-])cc3[N+](=O)[O-])ccc12	i	11	-7	-2	4	-10	36	-10
CCc1ccc2[nH]c3nc(N/N=C/c4cccc(O)c4)nnc3c2c1	i	1	-1	-14	-20	1	98*	-7
O=C(c1ccncc1)N1CCN(c2cccc(C(F)(F)F)c2)CC1	i	0	1	-4	-2	·	-8	0
CCOC(=O)c1ccc(NC(=O)c2cc(OC)c(OC)c(OC)c2Br)cc1	i	1	-4	·	5	6	-1	-8
COc1cc(-c2nc3ccccn3c2NCc2ccccc2)ccc1SC1CCCCC1	i	-1	-23	-19	·	·	21	·

Part of the list above, limited to PABP polyA inh, Rce1 inh and eIF4H inh:
Molecule | PABP polyA inh | Rce1 inh | eIF4H inh
O=C(c1ccncc1)N1CCN(c2cccc(C(F)(F)F)c2)CC1 | -2 | i | 0
COC(=O)c1ccccc1NC(=S)NC(=O)C1CC1 | -5 | i | 2
COC(=O)Cn1ccc2cc(S(=O)(=O)N3CCCCC3)ccc21 | 5 | i | -5
CCOc1ccc(/C=C2/Sc3ccc(C(=O)N4CCN(C(=O)c5ccco5)CC4)cc3N(C)C2=O)cc1OC | -7 | i | -2
